# Assay outcomes from PubChem.
# NPR1 antag – Natriuretic polypeptide receptor (hNpr1) antagonism - Primary qHTS; HEK293 hNpr1 GloSensor cGMP, ANP-stimulated luminescence; Potency, µM (series often up to 46.3 µM), for inactives: at the highest dose activity change, negative = inhibition, most hits filed as inhibitors; Atrial natriuretic peptide receptor 1 (Homo sapiens), P16066; hit rate 1.6% among 76,000; active = well fitted inhibition curve with a large enough effect; inconclusive = small, poorly fitted or top-dose-only effect; inactive = no such curve, though single readings can be large or run the other way;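 also: nearly all actives have a fitted effect of over 60% in size; nearly all hits also lower the signal before the agonist is added; a reference antagonist and vehicle were the controls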
# Target sequence (P16066 whole entry, looked up): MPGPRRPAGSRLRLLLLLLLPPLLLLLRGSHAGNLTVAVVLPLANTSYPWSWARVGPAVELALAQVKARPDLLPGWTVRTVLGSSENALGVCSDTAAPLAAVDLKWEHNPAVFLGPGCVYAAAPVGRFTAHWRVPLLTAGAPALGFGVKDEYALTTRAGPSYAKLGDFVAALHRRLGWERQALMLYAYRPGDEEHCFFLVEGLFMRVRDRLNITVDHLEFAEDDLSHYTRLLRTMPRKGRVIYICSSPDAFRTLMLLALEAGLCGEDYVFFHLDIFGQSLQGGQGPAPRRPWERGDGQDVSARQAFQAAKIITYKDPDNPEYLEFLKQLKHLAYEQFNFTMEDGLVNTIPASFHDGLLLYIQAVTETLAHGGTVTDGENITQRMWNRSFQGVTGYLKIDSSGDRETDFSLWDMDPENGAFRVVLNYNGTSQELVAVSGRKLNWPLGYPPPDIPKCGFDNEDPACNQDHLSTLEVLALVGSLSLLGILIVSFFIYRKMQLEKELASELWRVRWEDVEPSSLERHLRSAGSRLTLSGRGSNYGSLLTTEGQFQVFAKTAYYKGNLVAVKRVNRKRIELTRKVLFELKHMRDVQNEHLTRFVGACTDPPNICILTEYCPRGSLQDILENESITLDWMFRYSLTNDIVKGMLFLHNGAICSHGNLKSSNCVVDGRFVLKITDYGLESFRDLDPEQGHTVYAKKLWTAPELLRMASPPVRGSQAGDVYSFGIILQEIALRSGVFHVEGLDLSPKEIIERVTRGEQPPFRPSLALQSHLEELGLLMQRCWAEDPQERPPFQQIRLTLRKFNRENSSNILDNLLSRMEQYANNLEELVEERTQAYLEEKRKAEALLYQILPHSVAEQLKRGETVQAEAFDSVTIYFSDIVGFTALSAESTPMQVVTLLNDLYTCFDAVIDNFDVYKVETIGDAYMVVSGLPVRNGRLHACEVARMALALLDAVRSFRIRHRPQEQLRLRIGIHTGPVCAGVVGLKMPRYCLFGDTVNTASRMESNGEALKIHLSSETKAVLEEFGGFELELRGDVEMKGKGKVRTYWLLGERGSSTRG
#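 Compound pre-incubated 30 min at room temperature on GloSensor-loaded HEK293 cells stably carrying hNpr1 and the pGS-40F cGMP biosensor. Stimulation uses hNppA at 0.1 nM final; luminescence is taken at baseline and 20 min post-agonist.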
# * marks the source's active call; other numbers are inactive results; ? = inconclusive; & = joins results of further samples; [ ] = dose if it differs, or a comment. % is scaled to controls: 0 for no effect and ±100 for the full control effect; potency is read from the fitted curve at half-maximal effect.
SMILES,NPR1 antag
CN1CCN(c2ccc3ncc(Nc4ccc5c(c4)OCCO5)n3n2)CC1,-0.9%[70.6 µM]
CN1CC2(CCCN(C(=O)c3cn4cc(Cl)ccc4n3)C2)OC1=O (centres undefined),1.8%
CC(C)CNC(=O)N1CCCC(c2nn[nH]n2)C1 (centres undefined),1.1%
COCc1nncn1C1CCN(C(=O)c2ccc(F)c(F)c2)CC1,0.7%
O=C1CCN(S(=O)(=O)c2ccccc2)CCCN(C2CCCCC2)CCN1,0.2%
O=C1CCN(C(=O)Cc2cccc(F)c2)CCCCCCN1,6.5%
N#Cc1ccc(C(=O)N[C@H]2[C@H](O)[C@H](O)C[C@@H]2c2cccnc2)cc1,0.4%[70.6 µM]
CCCC(C)N1CC2(CCN(C(=O)c3csc(C(C)C)n3)CC2)OC1=O (centres undefined),0.9%
Cc1ncoc1C(=O)NC1CCc2nnc(C3CC3)n2CC1 (centres undefined),2.7%
COc1ccc(C(=O)NCC(=O)N2CCCCCCNC(=O)CC2c2ccccc2)cc1F (centres undefined),-1.2%
Cc1ccc(C2Cn3nnc(C(=O)N4CCN(C(=O)Cc5cccc(F)c5)CC4)c3CO2)cc1 (centres undefined),11.2µM*
COCC1CN(C)CC12CCN(C1CCOCC1)CC2 (centres undefined),2.0%
CC(C)S(=O)(=O)CCNc1nccc(-c2cccnc2)n1,-2.9%
CCC(C(=O)NCCn1ccn2nc(-c3ccc(F)cc3)cc2c1=O)c1ccccc1 (centres undefined),?
O=C(O)c1ccc(C2CCCN(C(=O)CSCC3CC3)C2)cc1 (centres undefined),0.0%
Cc1ccc(CNC(=O)C2CCN(c3cc(C(F)(F)F)ncn3)CC2)cc1,12.6µM*
COc1ccc2[nH]c3c(c2c1)CCNC31CCN(C(=O)c2ccccn2)CC1,4.6%
CN1C(=O)CO[C@H](c2ccc(NC(=O)c3cccnc3)cc2)[C@H]1CO,5.3%[70.6 µM]
Cc1ccc(C2=NC3(CCN(C(=O)c4cc(F)ccc4F)CC3)ON2)cc1,-6.1%
O=C(N1CCC2(CC1)CC(N(Cc1ccccc1)C1CC1)CCO2)C1(c2ccccc2)CC1 (centres undefined),?
CC(C)c1ccc(CC(=O)N2CCCc3ncc(C(=O)N(C)Cc4ccccc4)cc32)cc1,-20.0%
O=C1CCN(C(=O)[C@@H](Cc2ccccc2)NC(=O)c2ccoc2)CCOCCN1,-10.3%
CC(C)c1noc(CC2CCN(C(=O)Cc3ccc(F)cc3)CC2)n1,-23.3%
Cn1ccnc1CN1C(=O)CO[C@H](c2ccc(NC(=O)c3ccc(F)c(Cl)c3)cc2)[C@H]1CO,-0.6%
COCCOCC1(CNC(=O)C2CCOCC2)C[C@@H](O)[C@@H](O)C1 (some centres undefined),-4.0%[70.6 µM]
# (listing goes on)
SMILES,NPR1 antag
Cc1ccc(C)c(NC(=O)N2CCCC(c3noc(COc4ccccc4)n3)C2)c1 (centres undefined),-20.6%
COc1cccc(OC)c1CN1CC[C@@H]2CN(S(C)(=O)=O)[C@@H]2C1,2.7%
COc1ccc(-c2nc3c(c(=O)[nH]2)CCN(C(=O)Cc2ccsc2)C3)cc1,4.7%
Cc1ccc(-c2cnc([C@@H]3COCCN3C(C)C)[nH]2)cc1,3.2%[70.6 µM]
C[C@@H]1CN(c2cnc3ccccc3n2)CC[C@@]1(O)C1CCC1,?
COc1cccc(C(=O)N2CCCC(n3cc(-c4nc(C5CC5)no4)nn3)C2)c1 (centres undefined),-20.0%
CCS(=O)(=O)N1CCC2(CCCN(C3CCOCC3)C2=O)C1 (centres undefined),0.1%
CCN(CC)C(=O)Cn1cc(C(=O)N2CCCC2c2nc3ccccc3s2)nn1 (centres undefined),2.5%
CCc1nc2c(c(-c3ccc(Cl)cc3)n1)CN(C(=O)OC)CC2,-11.5%[70.6 µM]
O=C(c1cccc(Cl)c1)N1CCC2(CC1)NC(=O)N(c1ccccc1Cl)N2,0.0%
CNC(=O)[C@@H]1CN(C(=O)CCc2ccccc2OC)C[C@H]1c1n[nH]c(C)n1,1.0%
CC(=O)N1CCC2(CC1)SCC(=O)N2c1ccc(F)cc1,1.6%
CC(=O)NC1(C)CCN(Cc2ccc(-c3ccc(Oc4ccccc4)cc3)cc2)C1 (centres undefined),17.8µM*
c1ccc(-c2cn3c(n2)CO[C@@H](CNCC2CCCCC2)C3)cc1,-2.3%[70.6 µM]
COc1ccc(C(=O)NC[C@H]2Cn3ccnc3CO2)cc1,-1.1%[70.6 µM]
Cc1ccc(S(=O)(=O)NC[C@H]2O[C@@H](CC(=O)N3CCN(c4ccccc4)CC3)[C@H](O)[C@@H]2O)cc1,2.8%
CO[C@H]1C(=O)N(C2CCN(C(=O)c3cc4ccccc4[nH]3)CC2)[C@H]1c1ccncc1,-7.2%
Cc1ccc(C(=O)N2CCC(N3CCCNC3=O)CC2)cc1,17.7%&5.4%[70.6 µM]
CCOc1ccccc1C(=O)N1CCC(Oc2ncccc2C(=O)N(C)C)C1 (centres undefined),-7.7%
CCCc1[nH]nc2c1C(c1ccccc1)C(C#N)=C(N)O2 (centres undefined),1.6%
COc1cccc(-c2noc(CC3CCN(C(=O)c4ccc(C)cc4)CC3)n2)c1,3.55µM*
COCCNC(=O)[C@@H]1C[C@@H](O)CN1C1CCN(C(=O)c2ccc3ccccc3n2)CC1,-8.1%
O=C(Cc1ccccc1Cl)N1CCC(c2n[nH]c(=O)n2Cc2ccc(F)cc2)CC1,-4.9%
CCOc1ccccc1CN1CCN(c2nccc(OC)n2)CC1CCO (centres undefined),-19.0%
Cc1ccc(S(=O)(=O)N2CCC(CCC(=O)NCc3ccccc3)CC2)cc1,1.2%
# (next part)
SMILES,NPR1 antag
COc1ccccc1OCc1cc(C(=O)NCc2n[nH]c3c2CCC3)n[nH]1,7.1%
CC(C)C(=O)N1CCC(O)(c2ccccc2)[C@H](N(C)C)C1 (some centres undefined),-1.5%
COc1ccc(C(=O)N2CC[C@@H]3CN(S(C)(=O)=O)[C@@H]3C2)cc1F,2.3%
CCCCc1nn(CC(=O)NCc2c(C)noc2C)c(=O)n1-c1ccccc1,8.7%
O=C(Nc1ccc2c(c1)OCO2)N1CCc2onc(-c3ccc(F)c(F)c3)c2C1,?
Cc1cccc(-c2cnc3n[nH]c(-c4ccccc4)c3n2)c1,-11.9%[70.6 µM]
O=C(NCc1ccccn1)c1ccc(N2CC3CC(C2)[C@H]2CCCC(=O)N2C3)nc1 (some centres undefined),1.2%
CC(C)c1noc(-c2cccn3c(CNC(=O)c4ccncc4)nnc23)n1,2.3%
CCCC1c2nccn2CCCN1C(=O)CCc1c(C)noc1C (centres undefined),-11.6%
CCn1nccc1C(=O)N1CCC(N2C[C@H](O)C[C@H]2C(=O)NC2CCCCC2)CC1,1.7%
Cc1ccc2oc([C@H]3CCN(Cc4c[nH]c5ccccc45)C3)nc2c1,?
CNC(=O)N1CCC(C2CCN(C(=O)NCc3ccc(F)cc3)C2)CC1 (centres undefined),3.3%
CCc1ccc(N2CC(c3noc(-c4cc(OC)c(OC)c(OC)c4)n3)CC2=O)cc1 (centres undefined),-7.9%
O=C(CN1C(=O)NC2(CCOCC2)C1=O)NCCCc1ccccc1,2.9%
COc1ccc(C(=O)N2CCC3(CC2)NC(=O)N(Cc2ccc(F)cc2)C3=O)cc1OC,-12.7%
CN(Cc1cccnc1)c1nc2c(c(=O)[nH]1)CCN(Cc1cccc(Cl)c1)CC2,-19.5%
Cc1ccc(C(=O)NC2CCN(c3cc(-c4ccc(F)cc4)[nH]n3)C2)cc1 (centres undefined),-14.6%
COCCc1noc([C@@H]2CN(Cc3cccc(C#N)c3)C[C@H]2CO)n1,4.1%
COc1ccc(C(=O)N2CCC3(CC2)NC(=O)N(Cc2ccccc2)C3=O)cc1OC,0.9%
CCN(Cc1ccccc1)C(=O)CC1CCCCN(Cc2ccccc2)C1=O (centres undefined),2.8%
CSCC(=O)N1CCC(c2nnc(CN3CCN(C)CC3)n2C)CC1,5.6%
Cc1ccc(CNC(=O)N2CC[C@H]3C(=O)NCCCCCN(Cc4cccnc4)[C@@H]3C2)cc1,0.6%
C[C@@H](NC(=O)C12CC3CC(CC(C3)C1)C2)c1onc(-c2ccccc2)c1C(=O)O,1.5%[70.6 µM]
COc1ccc(CNC(=O)N2CC(c3nc(CCOCC4CCOCC4)no3)C2)cc1,1.7%
CSc1nccc(N2CCC3(CCCN(C(C)C)C3=O)C2)n1 (centres undefined),?

# 21 consecutive compounds already listed, for reference:
SMILES,NPR1 antag
COc1ccccc1OCc1cc(C(=O)NCc2n[nH]c3c2CCC3)n[nH]1,7.1%
CC(C)C(=O)N1CCC(O)(c2ccccc2)[C@H](N(C)C)C1 (some centres undefined),-1.5%
COc1ccc(C(=O)N2CC[C@@H]3CN(S(C)(=O)=O)[C@@H]3C2)cc1F,2.3%
CCCCc1nn(CC(=O)NCc2c(C)noc2C)c(=O)n1-c1ccccc1,8.7%
O=C(Nc1ccc2c(c1)OCO2)N1CCc2onc(-c3ccc(F)c(F)c3)c2C1,?
Cc1cccc(-c2cnc3n[nH]c(-c4ccccc4)c3n2)c1,-11.9%[70.6 µM]
O=C(NCc1ccccn1)c1ccc(N2CC3CC(C2)[C@H]2CCCC(=O)N2C3)nc1 (some centres undefined),1.2%
CC(C)c1noc(-c2cccn3c(CNC(=O)c4ccncc4)nnc23)n1,2.3%
CCCC1c2nccn2CCCN1C(=O)CCc1c(C)noc1C (centres undefined),-11.6%
CCn1nccc1C(=O)N1CCC(N2C[C@H](O)C[C@H]2C(=O)NC2CCCCC2)CC1,1.7%
Cc1ccc2oc([C@H]3CCN(Cc4c[nH]c5ccccc45)C3)nc2c1,?
CNC(=O)N1CCC(C2CCN(C(=O)NCc3ccc(F)cc3)C2)CC1 (centres undefined),3.3%
CCc1ccc(N2CC(c3noc(-c4cc(OC)c(OC)c(OC)c4)n3)CC2=O)cc1 (centres undefined),-7.9%
O=C(CN1C(=O)NC2(CCOCC2)C1=O)NCCCc1ccccc1,2.9%
COc1ccc(C(=O)N2CCC3(CC2)NC(=O)N(Cc2ccc(F)cc2)C3=O)cc1OC,-12.7%
CN(Cc1cccnc1)c1nc2c(c(=O)[nH]1)CCN(Cc1cccc(Cl)c1)CC2,-19.5%
Cc1ccc(C(=O)NC2CCN(c3cc(-c4ccc(F)cc4)[nH]n3)C2)cc1 (centres undefined),-14.6%
COCCc1noc([C@@H]2CN(Cc3cccc(C#N)c3)C[C@H]2CO)n1,4.1%
COc1ccc(C(=O)N2CCC3(CC2)NC(=O)N(Cc2ccccc2)C3=O)cc1OC,0.9%
CCN(Cc1ccccc1)C(=O)CC1CCCCN(Cc2ccccc2)C1=O (centres undefined),2.8%
CSCC(=O)N1CCC(c2nnc(CN3CCN(C)CC3)n2C)CC1,5.6%

# Exported tab-delimited: part of the list above.
SMILES	NPR1 antag
O=C(CN1C(=O)NC2(CCOCC2)C1=O)NCCCc1ccccc1	2.9%
COc1ccc(C(=O)N2CCC3(CC2)NC(=O)N(Cc2ccc(F)cc2)C3=O)cc1OC	-12.7%

# The listing continues.
SMILES,NPR1 antag
O=C(Cc1cccc(F)c1)N1CCC(c2nc(-c3ccccc3)no2)C1 (centres undefined),-3.9%
CC(=O)Nc1cccc(C(=O)N2CCC3(CC2)NC(=O)N(c2cccc(Cl)c2)N3)c1,-3.5%
CC(C)NC(=O)N1C[C@@H]2C[C@H]1C(=O)N(C)c1ccccc1O2,4.1%[70.6 µM]
COc1ccc(C(=O)N2CCC3(CC2)NC(=O)N(c2ccc(F)cc2)N3)cc1OC,0.0%
CC(C)N1C(=O)OCC12CCN(Cc1ccc3c(c1)CCO3)C2 (centres undefined),-15.0%[70.6 µM]
COc1ccc(-c2ccnc3nc(C4CC4)nn23)c(F)c1,-1.9%
Cc1cc(C)n(Cc2ccc(C(=O)N3CCC(N4C[C@H](O)C[C@H]4C(=O)NC4CCCCC4)CC3)o2)n1,4.2%
Cc1ccc(CN2CCN(C(=O)C3(Cc4cccnc4)CCCCC(=O)N3)CC2)cc1 (centres undefined),-0.6%
COCCN1CC(CO)C2(CCN(C3CCSCC3)CC2)C1 (centres undefined),-2.7%
COc1ccc(CN2CC(CNc3ccccc3)C3(C2)CN(c2ccccc2)C3)cc1O (centres undefined),-7.8%[70.6 µM]
O=C(CCCc1ccccc1)N1CCC([C@@H]2CNC[C@H]2CO)CC1,8.1%
Cc1noc(C)c1S(=O)(=O)N1C[C@@H](F)C[C@H]1C(=O)N1CCc2ccccc2C1,-4.7%
N#Cc1cccc(CN2C[C@@H](CO)[C@H](c3ccccn3)C2)c1,-0.1%
CC(C)C[C@@H]1N[C@H](C(=O)NCCOc2ccccc2)Cc2cn(C)c3cccc1c23,-22.3%[70.6 µM]
CC(C)(C)NC(=O)C[C@@H]1CCNC[C@@H]1Cc1cc(CC2CCCCC2)on1,6.6%[70.6 µM]
CCOc1ccccc1NC(=O)Nc1ccc(-c2nnc3n2CCCC3)cc1,-3.4%
COc1ccc(-c2ccc3c(n2)CN(Cc2csc(C)n2)C(=O)CO3)cc1F,-11.3%[70.6 µM]

# These rows are one share of the data (hit frequency here may not be typical).
